# Screens (PubChem BioAssay)
# SARS PLP yeast – qHTS of Yeast-based Assay for SARS-CoV PLP; Potency, µM (highest dose often 32.9 µM), for inactives: at the highest dose activity, positive = growth rescue; S. cerevisiae expressing SARS-CoV PLpro, growth rescue; control for the full effect not named in the record; 330,000 compounds, 0.19% hits; also: 0% is about no effect; nearly all actives have a fitted effect of over 55% in size; growth read by luminescence after 48 h
# RE007 growth inh – qHTS Assay for Inhibitors of the HIV-1 protein Vpr. S. pombe RE007 Vpr strain, BacTiter-Glo ATP luminescence, 24 h; control for the full effect not named in the record. 360,000 compounds, 0.21% hits. Potency, µM (titrated, usually from 92.2 µM), inactives show at the top dose activity change, negative = less growth; active = well fitted falling curve with a large enough effect; inconclusive = small, poorly fitted or top-dose-only effect; inactive = no such curve, though single readings can be large or run the other way;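 also: % is scaled to controls: 0 for no effect and ±100 for the full control effect; nearly all actives have a fitted effect of over 50% in size; the assay follows cell death caused by Vpr and the record does not say whether a fall means rescue or toxicity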
#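 Fission yeast strain RE007, carrying one chromosomally integrated HIV-1 vpr copy, was seeded at OD 0.01 in PMG+AL medium with 23 nL pinned compound. After 24 h at 30 °C and 99% humidity, viability was read by BacTiter-Glo luminescence.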
# NS1 inh – qHTS Assay for Inhibitors of Influenza NS1 Protein Function; S. cerevisiae slowed by influenza A NS1, growth recovery by OD600; Potency, µM (titrated, usually from 46.1 µM), without a hit: at the highest dose activity, positive = more growth; 270,000 compounds, 0.4% hits; AID 2326, 2010; also: actives are rising curves; nearly all actives have a fitted effect of over 50% in size
#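 Growth recovery, yeast-based: influenza A NS1 expressed in S. cerevisiae causes slow growth, and suppressors are detected by OD600. The parent strain without NS1 is used as positive control.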
# Lassa entry inh – qHTS for Inhibitors of binding or entry into cells for Lassa Virus | Lassa virus pseudotype entry inhibition, cell reporter; control for the full effect not named in the record | Potency, µM (series often up to 37.9 µM), for the others: at the highest dose activity change, negative = inhibition, hits mostly inhibitors | 300,000 compounds, 1.2% hits | AID 540256, 2011; active means well fitted inhibition curve with a large enough effect; inconclusive means small, poorly fitted or top-dose-only effect, or effect the other way; inactive means flat fitted curve, though single readings scatter; tested in HEK293 cells; also: % is scaled to controls: 0 for no effect and ±100 for the full control effect; nearly all actives have a fitted effect of over 50% in size; luciferase read-out
# MARV entry inh – qHTS for inhibitors of binding or entry into cells for Marburg Virus. Potency, µM (top dose mostly 37.8 µM), without a hit: top-dose activity change, negative = inhibition, most hits filed as inhibitors. 300,000 compounds, 1.8% hits. Marburg virus pseudotyped entry inhibition, cell reporter; control for the full effect not named in the record; about a third of the inactives were read at about 46 µM; active = well fitted inhibition curve with a large enough effect; inconclusive = small, poorly fitted or top-dose-only effect, or effect the other way; inactive = flat fitted curve, though single readings scatter; tested in HEK293 cells; about a fifth of its hits are not listed in these tables; also: % is scaled to controls: 0 for no effect and ±100 for the full control effect; luciferase read-out
# 2A StopGo – High Throughput Screening for Foot and Mouth Disease Virus Antivirals; Potency, µM (highest dose often 57.9 µM), inactives show top-dose signal change, negative = less light; human cells with a luciferase reporter of 2A StopGo recoding; control for the full effect not named in the record; 410,000 compounds, 1.2% hits; active = well fitted falling curve with a large enough effect; inconclusive = small, poorly fitted or top-dose-only effect; inactive = no such curve, though single readings can be large or run the other way; tested in HEK293T cells; also: % is scaled to controls: 0 for no effect and ±100 for the full control effect; nearly all actives have a fitted effect of over 45% in size; luciferase light after 4 h
# Cruzain Triton – qHTS Assay for Promiscuous and Specific Inhibitors of Cruzain (with detergent). Cruzipain (Trypanosoma cruzi), P25779. purified cruzain, Z-FR-AMC fluorescence, 0.01% Triton. Potency, µM, for inactives: max response, negative = inhibition, most hits filed as inhibitors. 200,000 compounds, 0.43% hits. AID 1478, 2009; active = well fitted curve in the direction sought with a large enough effect; inconclusive = small, poorly fitted or top-dose-only effect, or another doubt; inactive = no such curve, though single readings can be large; an effect the other way counts as inactive or inconclusive;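 also: plate controls were neutral wells for no effect and buffer without enzyme for full effect; nearly all actives have a fitted effect of over 40% in size; top concentration of the series not given in the record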
# Target sequence (P25779 123-467 limits assumed): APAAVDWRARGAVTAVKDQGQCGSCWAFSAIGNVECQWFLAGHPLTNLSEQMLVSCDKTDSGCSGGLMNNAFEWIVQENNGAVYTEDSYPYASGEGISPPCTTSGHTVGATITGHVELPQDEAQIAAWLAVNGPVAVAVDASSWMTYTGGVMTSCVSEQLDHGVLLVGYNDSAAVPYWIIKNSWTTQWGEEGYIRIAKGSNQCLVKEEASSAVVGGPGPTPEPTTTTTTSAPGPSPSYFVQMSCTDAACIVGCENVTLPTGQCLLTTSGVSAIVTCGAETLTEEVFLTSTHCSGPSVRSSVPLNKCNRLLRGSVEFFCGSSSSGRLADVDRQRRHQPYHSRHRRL
#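 Detergent-containing run (0.01% Triton X-100) in acetate buffer pH 5.5 with 5 mM DTT: enzyme at 1.5 nM final, 15 min compound preincubation at room temperature, then 2 uM Z-FR-AMC substrate. Activity taken as 60 s fluorescence increase at 360/450 nm.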
# Cruzain inh noDet – qHTS Assay for Promiscuous and Specific Inhibitors of Cruzain (without detergent); Cruzipain (Trypanosoma cruzi), P25779; purified cruzain, Z-FR-AMC fluorescence, no detergent; Potency, µM, for the others: max response, negative = inhibition, usual class: inhibitors; 200,000 compounds, 2.3% hits; active = well fitted curve in the direction sought with a large enough effect; inconclusive = small, poorly fitted or top-dose-only effect, or another doubt; inactive = no such curve, though single readings can be large; an effect the other way counts as inactive or inconclusive;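 also: plate controls were enzyme without inhibitor for no effect and buffer without enzyme for full effect; nearly all actives have a fitted effect of over 40% in size; top concentration of the series not given in the record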
#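 Purified cruzain at 1.5 nM, pre-incubated 15 min with compound at room temperature in 100 mM sodium acetate pH 5.5, 5 mM DTT, 0.00005% Triton X-100. Reaction started with 2 uM Z-FR-AMC; AMC fluorescence increase over 60 s gives rate.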
# The depositor's hits bear a star; ? = inconclusive; . = no result given; & = joins results of further samples; [ ] = remark or other dose. Unless noted, calls follow the shape of the dose curve; as a rule, active means well fitted rising curve with a large enough effect; inconclusive means small, poorly fitted or top-dose-only effect; inactive means no such curve, though single readings can be large or run the other way. Potency is read from the fitted curve at half-maximal effect.
nr	SMILES	SARS PLP yeast	RE007 growth inh	NS1 inh	Lassa entry inh	MARV entry inh	2A StopGo	Cruzain Triton	Cruzain inh noDet
1	CC(C)(C)OC(=O)C(C1NC(C(=O)O)C(C)(C)S1)N1C(=O)c2ccccc2C1=O (stereo unspecified)	.	-10%	.	?	6%	6%	.	.
2	COc1cc(/C=C2\CCCc3c2nc2ccccc2c3C(=O)O)cc(Cl)c1O	-3%	-11%	-6%	-17%[46.1 µM]	4%[46.1 µM]	3%	.	.
3	Cc1ccccc1NC(=O)/C(=C/c1cccs1)NC(=O)c1ccco1	9%	-3%	-3%	-10%	-13%	-9%	-5.9%	13%
4	Cc1cc(C)n(-c2ccccc2C#N)n1	-1%	-10%	-3%	?	6%[46.1 µM]	4%	.	.
5	CN(Cc1cnc2nc(N)nc(N)c2n1)c1ccc(C(=O)NC(CCC(=O)O)C(=O)O)cc1C(F)(F)F (stereo unspecified)	.	13%	.	.	-67%	-29%	.	.
6	COc1ccc(N2CCN(CCCNC(=O)c3ccc4nc(Cc5ccccc5)oc4c3)CC2)cc1	.	.	.	?	.	25µM*	-3.1%	-9%
7	O=C(NC1CCCc2ccccc21)c1ccccc1Cl (stereo unspecified)	0%	0%	-1%	5%	17%[46.1 µM]	-4%	.	.
8	Cc1cc(C)c2nc(N3CCCN(C(=O)c4cnccn4)CC3)c(C#N)cc2c1	-4%	2%	-8%	1%	0%	8%	-5.4%	?
9	CCn1c(SCC(=O)Nc2cc(C)ccc2F)nnc1-c1ccccc1O	.	.	.	-1%[46.1 µM]	?	?	-3.4%	3%
10	CCN(CC)c1ccc2cc(C(=O)Nc3ccccn3)c(=O)oc2c1	2%	0%	-2%	?	-21%&-21%&-21%	-3%	-0.2%	1%
11	CCc1nc(SCc2cccnc2)c(C#N)cc1C	-18%	-10%	-22%	1%	3%&3%	-5%	-1.8%	-16%
12	Cc1[nH]n(-c2ccccc2)c(=O)c1N=Nc1ccccc1	0%	7%	-2%	11%	19%[46.1 µM]	74%[activator]	.	.
13	CCC(C)NC(=O)c1sc2nc(C)c(C(=O)Nc3ccc(C)cc3C)c(-c3ccc(NC(C)=O)cc3)c2c1N (stereo unspecified)	.	.	.	-11%[46.1 µM]	-14%[46.1 µM]	-11%	-5.3%	?
14	COc1ccc(S(=O)(=O)N2c3ccccc3OCC2C(C)(C)C)cc1 (stereo unspecified)	-13%	-9%	.	4%[46.1 µM]	0%[46.1 µM]	-8%	.	.
15	Cc1ccc(CC(=O)Nc2cc(C)ccn2)cc1	?	10%	-4%	.	.	29%	.	.
16	COc1ccccc1CNC(=O)Cc1cc(=O)[nH]c(=O)[nH]1	-7%	4%	-2%	1%	12%	-18%	1.8%	8%
17	COc1ccc(C(=O)Nc2cccc(/C(C)=N/NC(=O)c3ccc([N+](=O)[O-])c(C)c3)c2)cc1OC	3%	11%	-5%	?	?	?	-4.8%	?
18	CCCn1nnc(NC(=O)c2cccc(OCC(C)C)c2)n1	-14%	0%	-2%	0%	8%	27%	-3.4%	0%
19	NS(=O)(=O)c1ccc(CCNC(=O)c2ccc(Cl)s2)cc1	24%	3%	3%	.	.	-3%	.	.
20	Cc1cc(C(F)F)n2nc(C(=O)Nc3cccc(S(=O)(=O)N4CCOCC4)c3)nc2n1	1%	13%	-3%	3%	26%	-23%	.	.
21	CCC(C)NC(=O)CSc1nc2cc3c(cc2c(=O)n1CCCC(=O)NCc1ccc2c(c1)OCO2)OCO3 (stereo unspecified)	.	.	.	1%[46.1 µM]	.	-9%	1.8%	11%
22	COc1ccc(C2NC(=O)NC(C)=C2[N+](=O)[O-])cc1 (stereo unspecified)	1%	7%	27%	.	.	-6%	.	.
23	CCOc1[nH]n(-c2ccc(Cl)cc2)c(=O)c1C=Nc1ccc(C)cc1	6%	.	12%	.	.	.	-0.1%	7%
24	O=C(/C=C/c1ccc(-c2ccccc2[N+](=O)[O-])o1)c1ccccc1	-29%	-4%	-42%	8%	?	4%	-14%	-26%
25	C[C@H](NC(=O)[C@@H]1Cc2ccccc2CN1C(=O)OC(C)(C)C)C(=O)NCC1CCCO1 (stereo partly specified)	3%	15%	7%	11%[46.1 µM]	?	9%	.	.
26	CCOC(=O)N1CCN(c2ncc3c(n2)CC(c2ccc(OC)c(OC)c2)CC3=O)CC1 (stereo unspecified)	.	.	.	-3%[46.1 µM]	-17%[46.1 µM]	14µM*	-0.7%	2%
27	Cc1ccc(C(=O)O)cc1N=Cc1cc(Br)cc(Br)c1O	-31%	?	-1%	0%	22%	0%	-7.5%	4%
28	COCCCNC(=O)N1CCN(c2nnc(C)c3c(C)n(-c4ccc(Cl)cc4)nc23)CC1	.	.	.	15%[46.1 µM]	.	-22%	-2.4%	-5%
29	Cc1cc(S(=O)(=O)Nc2cccnc2)c(Cl)cc1Cl	10%	4%	22%	2%[46.1 µM]	16%[46.1 µM]	0%	.	.
30	O=C(O)CCSc1nnc(SCC(=O)NCC(F)(F)F)s1	26%	16%	7%	2%	16%	-21%	-1.0%	-4%
31	Cn1nc(C(=O)Nc2ccc(S(=O)(=O)Nc3ncccn3)cc2)ccc1=O	7%	6%	3%	-11%	4%[46.1 µM]	21%	.	.
32	CC1CN(C(=O)c2cc3c(=O)n4ccccc4nc3s2)CC(C)O1 (stereo unspecified)	0%	15%	1%	11%	-2%	31%[activator]	-19%	-7%
33	Cc1oc(C(C)(C)C)cc1C(=O)NCC(=O)NCC(=O)O	14%	7%	2%	-25%	-3%	.	4.9%	1%
34	O=C(NC1CCCC1)C(c1ccncc1)N(Cc1ccccc1F)C(=O)c1csnn1 (stereo unspecified)	1%	-2%	-24%	-14%[46.1 µM]	-12%[46.1 µM]	?	.	.
35	CCCc1cc(=O)[nH]c(Nc2ccc(OCC)cc2)n1	.	.	.	-15%[46.1 µM]	7%[46.1 µM]	-9%	-6.4%	6%
36	COc1cccc(C(=O)C2CCCN(Cc3ccccn3)C2)c1 (stereo unspecified)	0%	-22%	-3%	-4%	-26%[46.1 µM]	-18%	.	.
37	CCOc1cccc(C2c3[nH]c4ccccc4c3CCN2C(=O)CSCc2ccc(F)cc2)c1 (stereo unspecified)	.	.	.	?	.	?	8.3%	-3%
38	CCOC(=O)c1ccc(NC(=O)CSC2=NN3CCCC(=O)N=C3S2)cc1	3%	7%	1%	.	.	-17%	.	.
39	O=C(c1nnc(-c2ccc(Cl)cc2)o1)C1CCCC1	-2%	20%	.	2%	-3%[46.1 µM]	0%	.	.
40	Cc1onc(-c2ccccc2Cl)c1C(=O)N1CCCc2ccccc21	-7%	0%	-5%	-1%	?	.	2.3%	-1%
41	CC(=O)Nc1ccc(S(=O)(=O)N2CCN(C(=O)c3ncoc3-c3cccc(F)c3)CC2)cc1	-2%	2%	-66%	15%	17%[46.1 µM]	?	.	.
42	CC(C)(C)c1nnc2sc(SCC(O)=C(C#N)c3nc4ccccc4[nH]3)nn2c1=O	.	-5%	.	11%[46.1 µM]	12%[46.1 µM]	-26%	.	.
43	CN(C)C(=O)CN1CCN(c2nc3nonc3nc2N2CCCCC2)CC1	0%	104%	0%	0%[46.1 µM]	-4%[46.1 µM]	-14%	.	.
44	Cc1cccc(CNc2ccc(C(CC(N)=O)NC(=O)c3cccc(Br)c3)cc2[N+](=O)[O-])c1 (stereo unspecified)	8%	-3%	-1%	.	.	-12%	.	.
45	Cc1cc(/C=N\NC(=O)CC(=O)NC2CCCCC2)c(C)n1-c1ccc(Cl)c(Cl)c1	?	-9%	22%	-15%	?	-11%	-6.1%	-2%
46	O=C(COc1cccc2ccccc12)N1CCN(c2ccccn2)CC1	?	8%	-46%	8%	1%	.	-0.2%	2%
47	CCOc1ccc(C(=O)NC(C)(C)CC)cc1	-1%	-7%	-4%	12%[46.1 µM]	21%[46.1 µM]	-5%	.	.
48	COc1ccc(OC)c(S(=O)(=O)N/N=C(/C)c2c[nH]c3ccccc23)c1	?	3%	2%	5%[46.1 µM]	17%[46.1 µM]	32%[activator]	.	.
49	O=C(COC(=O)c1ccccn1)NCc1cccc(Cl)c1	-5%	-12%	.	25%	-11%[46.1 µM]	-7%	.	.
50	COc1ccc(NS(=O)(=O)c2ccc(C)c(C(=O)N3CCCCCCC3)c2)cc1	3%	-11%	.	-1%	8%	19%	.	.
51	C/C(=N/NS(=O)(=O)c1ccc(Cl)cc1)c1cccc(O)c1	0%	11%	-6%	10%	1%	14%	-1.0%	-5%
52	COc1ccc(C(CNC(=O)Nc2cccc(C)c2)N2CCN(C)CC2)cc1 (stereo unspecified)	6%	0%	7%	.	.	2%	.	.
53	COC(=O)c1ccc2nc(NC(=O)CN3C(=O)CCC3=O)sc2c1	1%	14%	3%	16%	1%	12%	-3.5%	-6%
54	Cc1c(C(=O)CN2CCSCC2)c2ccccc2n1C	-7%	-12%	-5%	-6%	2%	-7%	4.6%	4%
55	O=C(CSc1nc2ccccc2s1)NC(=O)NCc1ccco1	13%	5%	?	-1%	?	27%	-9.3%	-9%
56	Cc1ccc(S(=O)(=O)NC(C(=O)N2CCN(S(=O)(=O)c3cccc(F)c3)CC2)C(C)C)cc1 (stereo unspecified)	0%	-2%	.	11%	2%	-13%	.	.
57	O=C(Nc1ccccc1-c1ccccc1)c1cnccn1	4%	-10%	-78%	17%	?	20%	-0.5%	-6%
58	O=C(c1cccs1)N1CCN(Cc2ccccn2)CC1	0%	0%	4%	-10%	5%[46.1 µM]	-4%	.	.
59	CCOC(=O)CSc1nc(-c2ccc(F)cc2)cc(C(F)(F)F)c1C#N	.	.	.	-3%[46.1 µM]	-1%[46.1 µM]	32µM*	-1.3%	5%
60	COc1ccc(-c2noc(CCC(=O)NC3CCN(Cc4ccccc4)CC3)n2)cc1	1%	-26%	-1%	-8%	?	-11%	-8.0%	-14%
